# Vaccinia inh = Vaccinia orthopox stage-specific inhibition. Vaccinia-infected cells, mCherry/Venus stage reporter fluorescence; stronger effect = lower value; some inactives read as strong as hits. activity change (mCherry), % (test concentration not listed). 0.01% of 89,000 active. AID 1053133;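 active means mCherry past -33% and 40 or more points under the early reporter, replicates agreeing; inconclusive means past -33% without that gap or agreement; tested in A549 cells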;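 further: scaled between vehicle wells and reference inhibitor wells; 23 nL library stock went into each well; one replicate is shown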
# Vaccinia inh Venus = also measured in Vaccinia inh; calls as there; activity change (Venus), %; measured here: Venus reporter, other viral stage;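 negative = less Venus signal; first of two replicates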
# * hit, by the source's call; ? = inconclusive; nt = no result given.
SMILES,Vaccinia inh,Vaccinia inh Venus
C[C@@H]1CCCCO[C@@H](CN(C)S(=O)(=O)c2cn(C)cn2)[C@H](C)CN([C@@H](C)CO)C(=O)c2cc(NC(=O)NC3CCCCC3)ccc2O1,21.2,-0.3
C[C@@H]1CN([C@H](C)CO)C(=O)CCCn2nncc2CO[C@H]1CN(C)S(=O)(=O)c1cn(C)cn1,9.3,11.3
C[C@H]1CN([C@@H](C)CO)C(=O)c2ccccc2-c2ccccc2CO[C@H]1CN(C)S(=O)(=O)c1ccc([N+](=O)[O-])cc1,?,nt
C[C@@H]1CN([C@@H](C)CO)C(=O)c2cc(NS(=O)(=O)c3ccc(F)cc3)ccc2O[C@@H]1CN(C)C(=O)Nc1ccc(C(F)(F)F)cc1,-16.6,-10.4
CC(C)NC(=O)N(C)C[C@@H]1Oc2ncc(C#CCC3CCCC3)cc2C(=O)N([C@H](C)CO)C[C@H]1C,-16.3,-11.9
O=C(C[C@H]1C=C[C@H](NC(=O)c2ccc3c(c2)OCO3)[C@H](CO)O1)NCc1ccc(Oc2ccccc2)cc1,-3.6,-8.9
C[C@@H]1CN([C@H](C)CO)C(=O)c2cc(NC(=O)CCCN(C)C)ccc2O[C@H]1CN(C)C(=O)Nc1ccccc1,8.0,12.8
C[C@@H]1CCCCO[C@@H](CN(C)C(=O)CCCN(C)C)[C@H](C)CN([C@H](C)CO)C(=O)c2cc(NC(=O)Nc3ccc(F)cc3)ccc2O1,14.3,9.2
COc1ccc(NC(=O)N(C)C[C@@H]2Oc3ncc(C#C[C@@H](C)O)cc3C(=O)N([C@@H](C)CO)C[C@@H]2C)cc1,27.1,15.2
C[C@@H](NC(=O)C[C@H]1C=C[C@H](NS(=O)(=O)c2cccc(F)c2)[C@H](CO)O1)c1ccccc1,-15.4,-14.3
COc1ccc(S(=O)(=O)Nc2ccc3c(c2)C(=O)N([C@@H](C)CO)C[C@@H](C)[C@@H](CN(C)C(=O)Nc2ccc(F)cc2)OCCCC[C@@H](C)O3)cc1,-27.8,-15.5
COc1cccc(-c2ccc3c(c2)[C@H]2[C@H](CCN2C(=O)C2CCCCC2)[C@@H](CO)N3)c1,?,nt
OC[C@H]1[C@@H](c2ccccc2)C2(CN(Cc3nccs3)C2)N1CCC(F)(F)F,9.6,4.7
C[C@H]1CCCCO[C@H](CN(C)S(=O)(=O)c2cn(C)cn2)[C@@H](C)CN([C@@H](C)CO)C(=O)c2cc(NS(=O)(=O)c3ccc(F)cc3)ccc2O1,19.4,12.4
Cc1noc(C)c1NC(=O)N[C@H]1CC[C@@H](CCNC(=O)C2CCCCC2)O[C@H]1CO,2.8,10.9
COc1ccc(NC(=O)N[C@H]2C=C[C@H](CC(=O)NCc3ccccn3)O[C@@H]2CO)cc1,1.4,1.8
O=C(Nc1cc(F)ccc1F)N1CCCCN2[C@H](CO)[C@@H](c3ccc(-c4ccncc4)cc3)[C@H]2C1,18.7,1.6
CCCN1[C@@H]2c3ccc(-c4ccc(F)cc4)c(=O)n3C[C@H]1[C@H](CO)[C@H]2C(=O)OC,-4.2,-0.8
C[C@H](O)C#Cc1ccc2c(c1)O[C@@H](CN(C)C(=O)C1CC1)[C@@H](C)CN([C@H](C)CO)S2(=O)=O,9.3,3.6
Cc1ccc(S(=O)(=O)Nc2ccc3c(c2)C(=O)N([C@H](C)CO)C[C@H](C)[C@H](CN(C)Cc2ccc(C(=O)O)cc2)OCCCC[C@@H](C)O3)cc1,23.4,14.0
O=C(NCc1ccc(F)cc1)[C@H]1[C@H](CO)[C@H]2Cn3c(cccc3=O)[C@H]2N1CCC(F)(F)F,-3.7,12.1
CO[C@H]1CN(C)C(=O)c2cc(NS(=O)(=O)CC(F)(F)F)ccc2OC[C@@H](C)N(C(=O)c2ccc3c(c2)OCO3)C[C@H]1C,10.7,4.0
C[C@H](CO)N1C[C@H](C)[C@H](CN(C)Cc2ccc(C(F)(F)F)cc2)OCCCC[C@H](C)Oc2ccc(NC(=O)Cc3ccccc3)cc2C1=O,-31.4,-18.2
C[C@@H]1CN([C@H](C)CO)C(=O)c2cccc(NC(=O)C3CCOCC3)c2O[C@@H]1CN(C)Cc1ccc2c(c1)OCO2,4.5,3.8
CS(=O)(=O)N1[C@@H]2c3ccc(-c4ccccc4)c(=O)n3C[C@@H]2[C@@H](CO)[C@@H]1C(=O)NC1CCC1,8.0,7.5
CO[C@@H](CN(C)C(=O)c1cnccn1)[C@@H](C)CN([C@H](C)CO)S(=O)(=O)c1ccc(C)cc1,18.1,8.8
COc1ccc(NC(=O)Nc2ccc3c(c2)CC(=O)N([C@@H](C)CO)C[C@@H](C)[C@H](CN(C)S(=O)(=O)c2ccc(OC)cc2)O3)cc1,-8.5,-4.9
COc1ccc(NC(=O)Nc2cccc3c2O[C@@H](CN(C)Cc2ccc(-c4ccccc4)cc2)[C@@H](C)CN([C@H](C)CO)C3=O)cc1,-9.9,-6.9
C[C@H](CO)N1C[C@H](C)[C@H](CN(C)S(=O)(=O)c2cn(C)cn2)Oc2ncc(Br)cc2C1=O,4.4,8.1
O=S(=O)(c1ccccc1)N1[C@@H]2CNC[C@H]1C2c1ccc(-c2cccnc2)cc1 (stereo partly specified),?,7.1
CN1CCN(C(=O)C[C@@H]2CC[C@H]3[C@@H](COC[C@H](O)CN3C(=O)Nc3cc(Cl)cc(Cl)c3)O2)CC1,-1.7,-0.3
O=C(C[C@H]1CC[C@@H]2[C@H](COC[C@H](O)CN2C(=O)Nc2ccccc2)O1)NC1Cc2ccccc2C1,-7.8,-13.2
COc1ccc(S(=O)(=O)N(C)C[C@@H]2Oc3ncc(C#Cc4ccc(C(F)(F)F)cc4)cc3C(=O)N([C@H](C)CO)C[C@@H]2C)cc1,?,nt
Cc1ccc(-c2cnc3c(c2)C(=O)N([C@@H](C)CO)C[C@@H](C)[C@H](CN(C)C(=O)CN(C)C)O3)cc1,9.4,0.8
CCO[C@@H]1OC(C(=O)N2CCN(C)CC2)=C[C@H](c2ccccc2)[C@H]1CCCO,4.2,-15.1
CC(C)NC(=O)Nc1cccc2c1O[C@H](CN(C)S(=O)(=O)c1ccc(F)cc1)[C@H](C)CN([C@H](C)CO)C2=O,-4.1,-3.1
O=C(NCCN1CCCC1)[C@H]1N[C@H]2c3ccc(-c4ccccc4)c(=O)n3C[C@H]2[C@@H]1CO,11.6,9.4
COc1ccc(CN2C[C@@H](O)COC[C@@H]3O[C@H](CC(=O)N4CCc5ccccc5C4)CC[C@H]32)cc1,-28.6,-18.3
C[C@H]1CN([C@@H](C)CO)C(=O)c2cc(NC(=O)Nc3ccc4c(c3)OCO4)ccc2O[C@H]1CN(C)C(=O)NC1CCCCC1,2.5,6.0
C[C@@H]1CN([C@H](C)CO)C(=O)c2cc(C#CC3(O)CCCC3)cnc2O[C@H]1CN(C)Cc1ccncc1,32.1,17.4
COCC(=O)Nc1ccc2c(c1)C(=O)N(C)C[C@@H](OC)[C@@H](C)CN(C)[C@H](C)CO2,5.7,1.8
C[C@@H]1CN([C@@H](C)CO)C(=O)Cc2cc(NC(=O)Nc3cccc4ccccc34)ccc2O[C@H]1CN(C)Cc1ccc(-c2ccccc2)cc1,0.0,6.5
CNC[C@@H]1OCCCC[C@@H](C)Oc2ccc(NS(C)(=O)=O)cc2C(=O)N([C@H](C)CO)C[C@H]1C,6.0,4.3
CC(C)NC(=O)N(C)C[C@H]1OCCCC[C@@H](C)Oc2ccc(NC(=O)c3ccncc3)cc2C(=O)N([C@H](C)CO)C[C@@H]1C,3.6,4.0
C[C@@H]1CN([C@@H](C)CO)C(=O)c2cc(-c3ccccc3)cnc2O[C@@H]1CN(C)Cc1ccccc1,-18.3,-0.8
O=C(C[C@@H]1CC[C@@H]2[C@H](COC[C@@H](O)CN2Cc2cccc(F)c2)O1)NCc1cccc(F)c1,-10.7,-8.4
CCCNC(=O)C[C@H]1CC[C@@H]2[C@@H](COc3ccc(NC(=O)Nc4ccccc4F)cc3C(=O)N2C)O1,-1.4,-2.3
C[C@@H]1CN([C@@H](C)CO)C(=O)c2cc(Br)cnc2O[C@@H]1CN(C)Cc1ccc(Oc2ccccc2)cc1,-28.6,-19.8
COc1ccc(S(=O)(=O)Nc2ccc3c(c2)C(=O)N([C@@H](C)CO)C[C@H](C)[C@H](CN(C)Cc2ccc(C(=O)O)cc2)OCCCC[C@@H](C)O3)cc1,34.5,19.1
Cc1noc(C)c1S(=O)(=O)Nc1ccc2c(c1)C(=O)N([C@H](C)CO)C[C@H](C)[C@H](CN(C)S(=O)(=O)c1cn(C)cn1)OCCCC[C@@H](C)O2,22.3,14.8
C[C@@H]1CN([C@@H](C)CO)C(=O)c2cccc(NC(=O)C3CCCCC3)c2O[C@H]1CN(C)CC1CCCCC1,-2.9,-4.4
CCCNC(=O)[C@@H]1[C@@H](CO)[C@@H]2Cn3c(ccc(-c4cccc(C(=O)N(C)C)c4)c3=O)[C@H]1N2,5.1,5.1
CC(C)NC(=O)N(C)C[C@H]1Oc2c(NS(C)(=O)=O)cccc2C(=O)N([C@@H](C)CO)C[C@@H]1C,-5.0,0.5
O=C(NCC[C@H]1CC[C@@H](NC(=O)C2CCOCC2)[C@@H](CO)O1)c1ccc(F)cc1,-9.8,-8.8
COc1ccc(S(=O)(=O)N(C)C[C@H]2OCCCC[C@H](C)Oc3ccc(NC(=O)Nc4ccc(C(F)(F)F)cc4)cc3C(=O)N([C@H](C)CO)C[C@@H]2C)cc1,-6.6,15.2
Cc1ccc(S(=O)(=O)Nc2ccc3c(c2)CC(=O)N([C@@H](C)CO)C[C@H](C)[C@@H](CN(C)CC2CCCCC2)O3)cc1,?,nt
CN1CCN(C(=O)[C@H]2[C@H](CO)[C@H]3Cn4c(ccc(-c5cncnc5)c4=O)[C@H]3N2CC2CC2)CC1,-1.2,11.3
CS(=O)(=O)N1[C@H](C#N)[C@H](c2ccc(C#CC3CCCC3)cc2)[C@H]1CO,-8.2,-4.5
CCC(=O)Nc1ccc2c(c1)OC[C@H](C)N(C(C)=O)C[C@H](C)[C@@H](OC)CN(C)C2=O,7.5,1.2
O=C(NC1CC1)C1=C[C@H](c2coc3ccccc3c2=O)C[C@H](OCc2ccc(CO)cc2)O1,14.5,9.9
# Additional structures follow:
SMILES,Vaccinia inh,Vaccinia inh Venus
C[C@@H]1CCCCO[C@@H](CN(C)C)[C@@H](C)CN([C@@H](C)CO)C(=O)c2cc(NC(=O)C3CCCCC3)ccc2O1,9.8,12.2
COCC#Cc1ccc2c(c1)O[C@H](CN(C)C(=O)COC)[C@@H](C)CN([C@@H](C)CO)S2(=O)=O,14.3,9.9
CO[C@@H]1CN(C)C(=O)c2cc(NC(C)=O)ccc2OC[C@@H](C)N(C(=O)Cc2ccccn2)C[C@H]1C,10.0,6.4
COCC#Cc1cnc2c(c1)C(=O)N([C@H](C)CO)C[C@@H](C)[C@@H](CN(C)C(=O)Cc1ccncc1)O2,3.6,15.0
CCC(=O)N1[C@H](C(=O)NCC2CC2)[C@@H](CO)[C@@H]2Cn3c(cccc3=O)[C@@H]21,7.3,9.6
O=C(NCC[C@H]1CC[C@H](NC(=O)C2CCCCC2)[C@@H](CO)O1)c1cc(Cl)cc(Cl)c1,4.7,1.9
C[C@@H]1CCCCO[C@H](CN(C)Cc2ccc(C(F)(F)F)cc2)[C@@H](C)CN([C@H](C)CO)C(=O)c2cc(NC(=O)CCCN(C)C)ccc2O1,-15.8,-19.5
C[C@H](CO)N1C[C@H](C)[C@@H](CN(C)C(=O)c2ccncc2)Oc2cc(C#Cc3ccncc3)ccc2S1(=O)=O,-8.6,-2.5
Cc1ccc(S(=O)(=O)Nc2cccc3c2O[C@@H](CN(C)CC2CC2)[C@H](C)CN([C@H](C)CO)C3=O)cc1,-10.0,5.4
C[C@H](CO)N1C[C@H](C)[C@H](CN(C)Cc2ccc(C(=O)Nc3ccccc3N)cc2)Oc2c(NS(=O)(=O)c3ccc(F)cc3)cccc2C1=O,12.1,3.8
CCCN(C)C[C@H]1Oc2cc(-c3ccc(OC)cc3)ccc2S(=O)(=O)N([C@@H](C)CO)C[C@H]1C,-32.7,-20.1
CCCC#Cc1cnc2c(c1)C(=O)N([C@H](C)CO)C[C@@H](C)[C@@H](CN(C)C(=O)c1cccnc1)O2,-2.0,-0.1
O=C(NCC[C@H]1CC[C@@H](NC(=O)C2CCCCC2)[C@@H](CO)O1)c1ccc(F)cc1,3.4,8.6
CO[C@H]1CN(C)C(=O)c2cc(NS(=O)(=O)c3ccc(F)cc3)ccc2OC[C@H](C)NC[C@H]1C,7.4,9.6
COc1ccc(-c2cnc3c(c2)C(=O)N([C@@H](C)CO)C[C@H](C)[C@@H](CN(C)S(C)(=O)=O)O3)cc1,9.5,-0.1
COc1cccc(CN2CC3(CN(Cc4ccccn4)C3)c3c([nH]c4cc(OC)ccc34)[C@@H]2CO)c1,10.4,12.9
C[C@H]1CN([C@@H](C)CO)C(=O)c2cc(C3=CCCC3)cnc2O[C@@H]1CN(C)C(=O)c1cccnc1,16.4,1.2

# Record cards, as listed above. Order of screens: Vaccinia inh | Vaccinia inh Venus
# `CO[C@@H]1CN(C)C(=O)c2cc(NC(C)=O)ccc2OC[C@@H](C)N(C(=O)Cc2ccccn2)C[C@H]1C` is entered as 10.0 | 6.4
# `CS(=O)(=O)N1[C@@H]2c3ccc(-c4ccccc4)c(=O)n3C[C@@H]2[C@@H](CO)[C@@H]1C(=O)NC1CCC1` is entered as 8.0 | 7.5
# `C[C@H](CO)N1C[C@H](C)[C@@H](CN(C)C(=O)c2ccncc2)Oc2cc(C#Cc3ccncc3)ccc2S1(=O)=O` is entered as -8.6 | -2.5
# `CO[C@H]1CN(C)C(=O)c2cc(NS(=O)(=O)CC(F)(F)F)ccc2OC[C@@H](C)N(C(=O)c2ccc3c(c2)OCO3)C[C@H]1C` is entered as 10.7 | 4.0
# `C[C@@H]1CN([C@H](C)CO)C(=O)c2cc(C#CC3(O)CCCC3)cnc2O[C@H]1CN(C)Cc1ccncc1` is entered as 32.1 | 17.4

# Individual results from above.
# Under Vaccinia inh, `O=C(NCC[C@H]1CC[C@@H](NC(=O)C2CCCCC2)[C@@H](CO)O1)c1ccc(F)cc1` shows 3.4
# Under Vaccinia inh, `COCC#Cc1ccc2c(c1)O[C@H](CN(C)C(=O)COC)[C@@H](C)CN([C@@H](C)CO)S2(=O)=O` shows 14.3

# Screens (PubChem BioAssay)

# Only part of the results is shown (hit frequency here may not be typical).
